Screens from PubChem.
VDR inh = vitamin D3 receptor (human) inhibition. P11473. VDR-SRC2-3 peptide fluorescence polarization, 2 h. Potency, µM, for the others: max response, negative = inhibition, hits mostly inhibitors. 400,000 tested, 0.93% active. AID 504847; active means well fitted inhibition curve with a large enough effect; inconclusive means small, poorly fitted or top-dose-only effect, or another doubt; inactive means no such curve, though single readings can be large or run the other way; further: series mostly up to about 120 µM
Target sequence (P11473 whole entry, looked up): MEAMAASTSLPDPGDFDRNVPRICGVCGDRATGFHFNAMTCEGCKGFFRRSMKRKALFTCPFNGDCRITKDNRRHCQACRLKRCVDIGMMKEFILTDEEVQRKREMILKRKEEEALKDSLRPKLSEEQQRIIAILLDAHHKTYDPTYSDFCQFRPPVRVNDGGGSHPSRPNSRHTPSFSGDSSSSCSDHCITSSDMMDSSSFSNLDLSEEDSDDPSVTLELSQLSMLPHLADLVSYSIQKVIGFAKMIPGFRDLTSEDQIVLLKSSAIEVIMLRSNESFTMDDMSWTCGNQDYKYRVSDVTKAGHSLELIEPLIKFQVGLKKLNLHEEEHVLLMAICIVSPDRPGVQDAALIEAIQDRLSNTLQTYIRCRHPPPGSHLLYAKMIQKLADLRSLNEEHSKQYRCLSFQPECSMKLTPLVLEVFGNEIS
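Compounds are added to VDR with labelled SRC2-3 coactivator peptide and held 2 h at room temperature. Inhibition of the VDR–peptide interaction is then read as a change in fluorescence polarization.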
The depositor's hits bear a star; ? = inconclusive; & = joins results of further samples. On the % scale 0 is the no-effect control and ±100 the full control effect; potency means the concentration at half of the fitted maximal effect. The list is partial; rates above refer to the full screens.

compound	VDR inh
O=S(=O)(c1ccc(Cl)cc1)c1cc(Cl)c(Cl)cc1Cl	-14.3%
OCC12COC3c4ccccc4C(OC1)N32 (stereo not given)	-5.4%
C[C@@]12CCC(Cl)C[C@H]1CCC1C2CC[C@]2(C)C(=O)CCC12 (stereo not given in full)	-21.0%
NC(=O)CSP(=O)(c1ccccc1)c1ccccc1	-11.3%
O=C(O)C1C2c3ccccc3C(O)C1(C(=O)O)c1ccccc12 (stereo not given)	-9.1%
CCN(CC)C1=NC(=[N+](CC)CC)c2ccccc21	6.4%
C=CCNC(=S)Nc1ccc(OC(=O)Nc2ccc(Cl)c(Cl)c2)cc1	-3.3%
C=Cn1ccnc1P(=S)(c1c(C)nn(-c2ccccc2)c1C)c1nccn1C=C	14.1%
CC1=C2CCC3C(CCC4=CC(=O)CCC43C)C2CC1 (stereo not given)	?
CCN(CC)CCCN=Cc1c(O)n(CCc2ccc(OC)c(OC)c2)c(=O)[nH]c1=O	9.4%
CC1(C)C(C(=O)N2CCN(C(=O)c3ccccc3)CC2)C1(C)C	4.9%
CC(CCc1ccccc1)NC(C)C(O)c1ccc(O)cc1 (stereo not given)	8.0%&-24.5%&-0.8%&-1.1%
CCOC(=O)C1(c2ccccc2)Oc2ccccc2C(c2ccc(OC)cc2)=C1C(=O)OC (stereo not given)	-13.6%&-2.8%
CCOP(=O)(OCC)C(NC(=O)c1cccc2ccccc12)C(Cl)(Cl)Cl (stereo not given)	-8.0%
O=C1NC(=O)N(Cc2ccco2)C(=O)/C1=C\c1ccc(-c2ccc(F)cc2)o1	?
CN1CCCCC1Cn1cc(C(=O)c2cc([N+](=O)[O-])ccc2I)c2ccccc21 (stereo not given)	-12.1%
Cc1onc(-c2c(Cl)cccc2Cl)c1/C(N)=N/OC(=O)N(C)C	-5.8%
O=C(O)c1ccc(/C=C/c2nc3ccccc3c(=O)n2-c2ccc(Br)cc2)cc1	?
CCc1ccc(NC(=O)C(C)OC(=O)c2c(C)nn(Cc3ccccc3)c2Cl)cc1 (stereo not given)	-22.3%
COC(=O)C1=C(c2ccc(F)cc2OCc2ccccc2)C[C@@H]2CC[C@H]1N2C(=O)NCC1CC1	-12.7%

Next part
compound	VDR inh
COC(=O)C1=C(c2cccc(OC)c2OC)C[C@@H]2CC[C@H]1N2C(=O)NCC1CC1	-10.5%
COc1cc(O)cc2c1cc([N+](=O)[O-])c1c(C(=O)O)cc3c(c12)OCO3	-0.8%
CN1CCN(CCOC2c3ccccc3CSc3ccc(Cl)cc32)CC1 (stereo not given)	-10.7%
Cc1cccc(-n2c(CC3C(=O)Nc4ccc(C)cc43)nc3ccccc3c2=O)c1 (stereo not given)	2.3%
Cn1nnc(CC[N+](C)(C)C)n1	-4.2%
O=C(Nc1ccc(Br)cc1C(=O)c1ccccc1Cl)c1ccc(Br)cc1	-11.3%
CCOc1ccc(N2C(=O)NC(=O)/C(=C\c3ccc(N4CCCCC4)o3)C2=O)cc1	0.8%
COc1ccc(C(=O)CN2CCOCC2)cc1F	-12.3%
Cn1c(O)c(C=NCCN2CCOCC2)c(=O)[nH]c1=S	4.0%
ClCCOCOCCCl	-2.0%
Nc1ccc(N=Nc2ccccc2)cc1	-24.2%
NC(=S)c1cn(C2OC(CO)C(O)C2O)c2ncnc(N)c12 (stereo not given)	?
C=C1Nc2ccccc2C(=O)N1c1ccccc1C	2.5%
Nc1c(C(=O)NCc2ccco2)c2nc3ccccc3nc2n1Cc1ccc(F)cc1	-8.8%
O=[N+]([O-])O[C@H]1CO[C@H]2[C@@H]1OC[C@H]2O[N+](=O)[O-]	3.2%
CC/C(=N\NC(=O)c1ccccc1)c1c(O)n(C2CCCCC2)c(=O)[nH]c1=O	-19.4%
O=C(CCC(=O)N1C[C@H]2C[C@@H](C1)c1cccc(=O)n1C2)NCc1ccccc1	-4.1%
COc1ccc(Cn2c(O)c(/C=N/NC(=O)c3ccccc3O)c(=O)[nH]c2=O)cc1	-1.4%
CN1CCC(c2c[nH]c3ccccc23)C1 (stereo not given)	-8.9%
C=CCN1CC[C@]23c4c5ccc(O)c4O[C@@H]2C(=O)CC[C@]3(O)[C@H]1C5	0.2%&3.2%

The list goes on; the last 4 above are carried over.
compound	VDR inh
O=C(CCC(=O)N1C[C@H]2C[C@@H](C1)c1cccc(=O)n1C2)NCc1ccccc1	-4.1%
COc1ccc(Cn2c(O)c(/C=N/NC(=O)c3ccccc3O)c(=O)[nH]c2=O)cc1	-1.4%
CN1CCC(c2c[nH]c3ccccc23)C1 (stereo not given)	-8.9%
C=CCN1CC[C@]23c4c5ccc(O)c4O[C@@H]2C(=O)CC[C@]3(O)[C@H]1C5	0.2%&3.2%
COc1cc(N2C(=O)CC(=O)NC2=O)cc(OC)c1OC	-8.8%
CC12CCC(=O)C=C1CC(N1CC1)C1C2CCC2(C)C(O)CCC12 (stereo not given)	-12.5%
Clc1ccccc1N1CCN(Cc2ccc3c(c2)OCO3)CC1	-13.9%
NNC(N)=O	-0.6%&-7.4%
ClCC(Br)CBr (stereo not given)	5.8%
CCOC(=O)C1=C(N)OC2=C(C(=O)CCC2)C12C(=O)N(C)c1ccccc12 (stereo not given)	-6.2%
COC(=O)C1=CO[C@H](C)[C@H]2CN3CC[C@@]4(C(=O)Nc5ccccc54)[C@@H]3C[C@H]12	-1.0%
Cc1ccc(-c2ccc(=O)n(CCC(=O)N3CCC4(CC3)OCCO4)n2)cc1	-15.0%
CN(C)C(=O)Oc1cc(OC(=O)N(C)C)cc([C@@H](O)CNC(C)(C)C)c1	2.3%
Cc1cccnc1-n1c(-c2ccco2)nc2ccccc2c1=O	-5.1%
CC1CCN2c3nc4ccccn4c(=O)c3CC3(C(=O)N(C)C(=O)N(C)C3=O)C2C1 (stereo not given)	3.7%
c1ccc(CN2CCN(Cc3ccc4ccccc4c3)CC2)cc1	2.3%
Cc1ccc(CCNC(=O)C2CCCN(Cc3nc(-c4cccc(Cl)c4)oc3C)C2)cc1 (stereo not given)	89.1µM*
COc1ccc2nc3c(C)n(C)ccc-3c2c1	-14.6%
Cc1ccc(NC(=O)c2ncn(CCCNCCN3CCOCC3)n2)cc1C	2.8%
O=C(N/N=C/C1C(=O)NC(=S)N(c2ccccc2)C1=O)c1cc(Br)c(O)c(Br)c1 (stereo not given)	39.8µM*
CCOP(=O)(OCC)/C(=N/OC(=O)c1ccc(Cl)cc1Cl)C(N)=O	?
O=C1NC(=S)N(c2ccccc2)C(=O)/C1=C/c1ccco1	?
O=c1c2ccccc2nc(/C=C/c2cccc3ccccc23)n1-c1ccc(Cl)cc1	2.5%
O=C(/C=C/c1ccccc1)NC(=S)N1C[C@H]2C[C@H](C1)c1cccc(=O)n1C2	-11.0%

Continued:
compound	VDR inh
CCCC12CN3CC(C)(CN(C1)C3c1ccccn1)C2=O (stereo not given)	7.2%
CN1C2CCC1CC(OC(c1ccc(F)cc1)c1ccc(F)cc1)C2 (stereo not given)	-5.8%
Cc1ccc([N+](=O)[O-])cc1	6.1%
COc1cc2c(cc1OC)CN(c1ccc([N+](=O)[O-])c(C(F)(F)F)c1)CC2	?
CC1(C)C(O)CC(O)[C@]2(C)C1CC(=O)[C@]1(C)C2CC[C@@]2(C)C(c3ccoc3)OC(=O)C3OC321 (stereo not given in full)	1.2%
O=C1CC(=O)N(Cc2ccccc2)C(=O)N1Cc1ccccc1	-27.6%
Clc1cc(I)cc(Cl)c1NC1=NCCN1	-5.1%&-17.3%
Cc1ccc2c(c1)CC1(CN2C)C(=O)NC(=O)N(c2cccc(C)c2C)C1=O (stereo not given)	-16.9%
CCCCn1c(O)c(C(C)=NCc2cc(OC)cc(OC)c2)c(=O)[nH]c1=O	10.6%
COc1ccccc1N1C(=O)NC(=O)C(CCc2ccncc2)(CCc2ccncc2)C1=O	3.9%
CCOC(=O)C1CCN(C(C)C(=O)c2c[nH]c3ccccc23)CC1 (stereo not given)	5.7%
O=[N+]([O-])c1cccc2c([As](=O)(O)O)cccc12	12.0%
CCOP(=O)(OCC)C(Cc1ccccc1)NC(C)=O (stereo not given)	-1.0%
c1ccc2sc(SNC3CCCCC3)nc2c1	?
CSc1ccc(/C=C/c2nc3ccccc3c(=O)n2-c2cccc(Cl)c2C)cc1	7.9%
O=c1[nH]c(=S)n(C2CCCCC2)c(O)c1/C=N/N1CCOCC1	5.8%
CCN(CC)CCN=C(C)c1c(O)n(-c2ccccc2OC)c(=O)[nH]c1=O	-15.7%
CCOC(=O)C1=C(C)c2ccccc2OC1(C(=O)OCC)c1ccccc1 (stereo not given)	5.3%&1.0%
CC1=C(C(=O)O)N2C(=O)C(NC(=O)Cc3ccccc3)C2SC1 (stereo not given)	28.7%
O=C(C(=O)N1CCOCC1)c1cn(Cc2c(F)cccc2Cl)c2ccccc12	3.3%

The results go on.
compound	VDR inh
CC(=NCCN1CCCCC1)c1c(O)n(-c2ccc(Cl)cc2)c(=O)[nH]c1=O	15.7%
Cc1cccn2c(=O)c3c(nc12)N1CCC(Cc2ccccc2)CC1C1(C3)C(=O)N(C)C(=O)N(C)C1=O (stereo not given)	15.5%
CCCN(CCC)CCc1c[nH]c2ccc(C(N)=O)cc12	-14.3%
C[C@@H]1O[C@H](C[N+](C)(C)C)C[C@@H]1O	-1.0%
COc1cccc(-n2c(CN3CCOCC3)nc3ccc([N+](=O)[O-])cc3c2=O)c1	-15.0%
CC(C)CN1CC[C@@]2(CCCN(C(=O)Oc3ccccc3)C2)C1	?
Clc1ccc(C[n+]2c(-c3ccccc3)cc(-c3ccccc3)cc2-c2ccccc2)cc1	11.1%
CCN1CCN(Cc2nc3ccc([N+](=O)[O-])cc3c(=O)n2-c2ccccc2F)CC1	1.5%
COC1=CCC2([N+](=O)[O-])CN(C)CC1([N+](=O)[O-])C2 (stereo not given)	-1.9%
c1ccc2c(CN3CCCCC3)c[nH]c2c1	10.8%
Cc1ccccc1-c1nc(CS(=O)CC(=O)N2CCC3(CC2)OCCO3)c(C)o1 (stereo not given)	-4.9%
Cc1cc(OCC(=O)NCc2ccncc2)c2c3c(c(=O)oc2c1)CCC3	0.8%
CN1CCN(c2nc(N(C)C)oc(=O)c2C#N)CC1	-7.4%
ON1C2CCCCC2N(O)C1c1ccccc1F (stereo not given)	23.9%
CCN1CCC2(CC1)NC(=O)c1ccccc1O2	-11.9%
Cc1cc(C(=O)N2CCC3(CC2)OCCO3)cs1	-4.7%
COCCCn1c(N)c(C(=O)Nc2ccccc2)c2nc3ccccc3nc21	?
O=P1(c2ccccc2)Nc2ccccc2N1c1ccccc1 (stereo not given)	3.4%
COc1ccc(C(=O)CN2CCCCC2)cc1	7.3%
CC(=O)C1C2c3ccccc3OC1(C)N=c1s/c(=C/c3cnn(C)c3)c(=O)n12 (stereo not given)	17.7%

(cont.)
compound	VDR inh
N=C1c2ccccc2CN1NC(=O)c1ccc(Br)cc1	-11.2%
CCN1CCN(Cc2cc(Br)ccc2O)CC1	-8.0%
Fc1ccccc1CCNCc1cccc2ccccc12	12.5%
N#Cc1cc([N+](=O)[O-])ccc1NC(=O)c1cccn(Cc2cccc(F)c2)c1=O	7.7%
CCC(=NCc1cccnc1)c1c(O)n(-c2ccccc2)c(=O)[nH]c1=O	-1.5%
Nc1c(C(=O)OCC2CCCO2)c2nc3ccccc3nc2n1Cc1cccs1 (stereo not given)	-4.9%
C=CC[C@@H](C)CC(=O)C(CCCN=[N+]=[N-])SOOc1ccccc1 (stereo not given in full)	-16.6%
C[C@]12CC[C@H](O)C[C@H]1CC[C@@H]1[C@@H]2CC[C@]2(C)[C@@H](C3=CC(=O)OC3)CC[C@]12O	-20.9%
Cc1cccc(CCNCc2cc3cccc(C)c3[nH]c2=O)c1	-2.7%
COC(=O)C1=C(c2ccc(F)cc2OCc2ccccc2)C[C@@H]2CC[C@H]1N2C(=O)NCc1ccc2[nH]ccc2c1	12.9%
NC(=O)CN1CC(c2ccccc2)CC1=O (stereo not given)	-13.0%
Cc1ncc2n1-c1ccc(Cl)cc1C(c1ccccc1F)=NC2	2.2%&-7.7%
O=C(NC(=O)c1c(F)cccc1F)Nc1cc(Cl)c(F)c(Cl)c1F	-20.3%
Cc1nn(C2CCOC(C)(C)C2)c2c1C(c1ccc(OC(C)C)cc1)SCC(=O)N2 (stereo not given)	79.4µM*
O=C(O)C1C2CCC(O2)C1C(=O)Nc1cccc(Br)c1 (stereo not given)	-16.3%
COc1ccc(C[C@@H]2c3cc(O)c(OC)cc3CCN2C)cc1O	18.1%
CCc1cccc(C)c1NC(=S)N1CC2CC(C1)c1cccc(=O)n1C2 (stereo not given)	-12.1%
CN1CCC2(CC1)CCN(C(=O)c1ccco1)CC2	3.9%
CC(=O)NNC(=O)CN1C(=O)CN=C(c2ccccc2)c2cc(Br)ccc21	-7.6%
Cc1ccc(C)c(OCC(=O)N2CCN(Cc3ccc4c(c3)OCO4)CC2)c1	-11.6%

(further entries)
compound	VDR inh
Cc1ccc(S(=O)(=O)Nc2cc(C(=O)N3CCC4(CC3)OCCO4)ccc2N2CCCCC2)cc1	?
C=CCN1C(=O)/C(=C/c2cccs2)C(=O)NC1=S	?
COC(=O)C1=C(c2cc3ccccc3o2)C[C@@H]2CC[C@H]1N2C(=O)NCCO	-4.4%
CCN(CC)c1ccc(CNCCc2ccccc2F)cc1	-9.9%
CC(=O)[C@@H]1CC[C@H]2[C@H]3CC[C@H]4C[C@@H](O)CC[C@]4(C)[C@@H]3C(=O)C[C@@]12C	7.8%
C1=C(CCNCc2ccccc2)CCCC1	5.8%
O=C1NC(=O)N(Cc2ccc(F)cc2)C(=O)/C1=C\c1ccc(N2CCCC2)cc1	79.4µM*
